2A Renilla: lowers the Renilla signal of an FMDV 2A StopGo reporter. 120,000 tested, 0.32% active. Potency, µM (doses to about 57.5 µM), for the others: top-dose signal change, negative = less light. AID 1745857. HEK cells with a luciferase reporter of 2A StopGo recoding; active means well fitted falling curve with a large enough effect; inconclusive means small, poorly fitted or top-dose-only effect; inactive means no such curve, though single readings can be large or run the other way; note: nearly all actives have a fitted effect of over 55% in size; overnight with compound
StopGo FLuc: lowers the firefly signal of an FMDV 2A StopGo reporter | 120,000 tested, 0.23% active | HEK cells with a luciferase reporter of 2A StopGo recoding | Potency, µM (highest dose often 57.5 µM), without a hit: top-dose signal change, negative = less light | AID 1745856; active = well fitted falling curve with a large enough effect; inconclusive = small, poorly fitted or top-dose-only effect; inactive = no such curve, though single readings can be large or run the other way; note: nearly all actives have a fitted effect of over 60% in size; overnight with compound
An asterisk follows results filed as active; ? = inconclusive; & = joins results of further samples; [ ] = remark or other dose. % is set by controls: 0 for no effect and ±100 for the full control effect; potency is the fitted concentration of half-maximal effect.

cpd	Molecule	2A Renilla	StopGo FLuc
1	COc1ccc(C2NC(=O)NC(C)=C2C(=O)Nc2cc(C)cc(C)c2)c(OC)c1 (stereo not drawn)	-9.4%	-18.2%
2	Clc1cccc(-n2c(SCc3cn4ccccc4n3)nnc2N2CCCC2)c1	14.9%	16.7%
3	Cc1ccc(Cl)cc1NC(=O)CCn1c(=O)c2cccn2c2cccnc21	1.2%	-8.9%
4	COc1ccc(OC)c(CCNC(=O)c2c3c(nc4ccccc24)C(=O)N(C2CCCCC2)C3)c1	-12.2%	-25.6%
5	Cc1ccc(CNC(=O)C(=O)NCC(c2ccco2)S(=O)(=O)c2ccc(C)cc2)cc1 (stereo not drawn)	4.9%	-7.8%
6	O=C(CSc1ncc(C(F)(F)F)cc1Cl)c1ccc[nH]1	-4.2%	97.8%[activator]
7	CCOc1ccc(C(=O)OCc2ccccc2C#N)cc1OC	33.3%	0.0%
8	CCN(C)S(=O)(=O)c1cc2c(cc1Cl)Oc1cc(C)ccc1NC2=O	-2.8%	2.5%
9	COC(=O)CC1Oc2ccccc2-n2cc(-c3ccc(F)cc3)nc21 (stereo not drawn)	-0.4%	3.6%
10	Cn1cc(C(=O)OCC(=O)NC(C)(C)C)c2ccccc21	2.6%	0.0%
11	O=C(Nc1ccc(Cl)c(S(=O)(=O)N2CCCC2)c1)c1n[nH]c2ccccc12	-26.2%	35.2%[activator]
12	O=C(NCCC1=CCCCC1)c1ccc2c(c1)N(Cc1ccc(Cl)cc1)C(=O)c1ccccc1S2=O (stereo not drawn)	8.8%	6.9%
13	CCOC(=O)c1c(N)n(-c2cc(C)cc(C)c2)c2nc3ccccc3nc12	-1.5%	-8.0%
14	CCOC(=O)c1cc(S(=O)(=O)N2CCN(c3ccccc3)CC2)[nH]n1	85.0%[activator]	-0.1%
15	O=C(CSc1nc2ccccc2s1)c1cccc(C(F)(F)F)c1	161.5%[activator]	0.0%
16	CCCCCCCCCCS(=O)(=O)N/N=C/c1c[nH]c2ccccc12	?	?
17	Cc1nc(-c2ccccn2)n[nH]1	-2.1%	15.1%
18	Cn1c(=O)[nH]c(=O)c2c1nc(N1CCN(CC(N)=O)CC1)n2Cc1ccc(Cl)cc1Cl	-14.4%	1.7%
19	CCOc1ccc2c(c1)c(=O)c(C(=O)c1ccccc1)cn2Cc1ccccc1	7.8%	-20.4%
20	Cc1ccc(Cl)cc1N1CCN(C(=O)c2c(C)oc3ncnc(N4CCOCC4)c23)CC1	-4.4%	-18.0%
21	COc1ccc(C(=O)COC(=O)c2csc(Nc3ccc(C)cc3)n2)cc1	-1.8%	0.0%
22	NC(=O)c1cc(C(=O)O)c[nH]1	4.9%	7.0%
23	Cn1c(=O)c2c(nc(NCc3ccc4c(c3)OCO4)n2Cc2cccc(F)c2)n(C)c1=O	-3.0%	-2.7%
24	O=C(CCC(=O)c1ccc2c(c1)CCC2)NC1CCCCC1	15.5%	34.9%[activator]
25	CCCCCCNC(=O)C(C#N)c1nc2ccccc2nc1N1CCCCC1 (stereo not drawn)	10.7%	14.7%
26	CCCNC(=O)C1CCN(C(=O)CCc2c(C)[nH]c(C(=O)OCC)c2C)CC1	5.9%	-0.3%
27	CCNc1cc(C)ccc1C	10.1%	3.3%
28	CC(=Nc1ccc([N+](=O)[O-])cc1)N(C)C	-2.2%	0.0%
29	COc1ccc(-c2c(C)nn3c(C(F)(F)F)cc(-c4ccccc4)nc23)cc1OC	-12.1%	-8.6%
30	Cn1c(=O)n(C)c2cc(CNCc3ccc(C(=O)O)cc3)ccc21	1.4%	-2.5%
31	COc1ccccc1C(C)NC(=O)c1nn(C(C)C)c(=O)c2ccccc12 (stereo not drawn)	-2.1%	-20.6%
32	O=S(=O)(Nc1nc2n(n1)C(c1ccc(F)cc1)C=C(c1ccccc1)N2)c1ccc(Cl)cc1 (stereo not drawn)	-2.4%	0.8%
33	Cc1cccc(C)c1Nc1c(-c2ccc(O)cc2)nc2sccn12	-13.9%	61.6%[activator]
34	Cc1ccc2c(c1)SC(C(=O)Nc1ccc(C)c(C)c1)C2 (stereo not drawn)	-2.1%	53.1%[activator]
35	Cn1c(=O)c2c(-c3ccccc3)n(CCCO)cc2n(C)c1=O	16.1%	-8.2%
36	Cc1ccc(N(CC(=O)Nc2ccc(F)cc2F)S(=O)(=O)c2cccs2)cc1	79.7%[activator]	-9.2%
37	COc1ccc(C)cc1CN(C)C(=O)CCn1ccc2ccccc21	82.8%[activator]	10.1%
38	Cn1c(=O)c(=O)n(C)c2cc(N3CCOCC3)c(NS(=O)(=O)c3ccc(Cl)cc3)cc21	-1.3%	-16.8%
39	O=S(=O)(NCCO)c1ccc(I)cc1	19.4%	4.7%
40	O=C(Nc1ccc(N2CCOCC2)cc1)c1cccc(Nc2ccnc(-c3cccc(F)c3)n2)c1	-18.4%	23.9%
41	CC1CCCN(c2csc3ccc(F)cc3c2=O)C1 (stereo not drawn)	56.3%[activator]	59.0%[activator]
42	Cc1ccc(CNC(=O)C(=O)NCC(c2cccnc2)N2CCN(c3ccccc3F)CC2)cc1 (stereo not drawn)	?	?
43	C=C(C)COc1ccc2c(C)c(CCC(=O)NCc3ccc(S(N)(=O)=O)cc3)c(=O)oc2c1	7.08µM*	4.47µM*
44	COc1ccccc1N1CCN(C(=O)c2cnc(N3CCCCC3)c3ccccc23)CC1	-6.3%	?
45	N#Cc1c(N)n[nH]c1CCCNC(=O)c1cc(-c2ccncc2)nc2ccccc12	-0.1%[1.06 µM]	33.6%[activator]
46	O=C(NCc1ccc(F)cc1)c1n[nH]c2c1CCCC2	-1.6%	169.0%[activator]
47	Cc1cccc(N2CCN(C(=O)c3cccc(NC(=O)C4=CSCCO4)c3)CC2C)c1 (stereo not drawn)	28.9%	?
48	N#Cc1cccc(CN2CCC(c3ccnn3CCO)CC2)c1	-3.0%	2.4%
49	COc1ccc(Cl)cc1N(C)C(=O)C(=O)Nc1ccc2nc3n(c(=O)c2c1)CCCCC3	12.1%	-11.0%
50	COC(=O)c1ccc2c(=O)n(CCCCCC(=O)N3CCN(c4cc(C)ccc4C)CC3)c(=O)[nH]c2c1	-15.5%	33.1%[activator]

Next part
cpd	Molecule	2A Renilla	StopGo FLuc
51	COC(=O)c1cccc(COC(=O)CCC(=O)c2ccc3c(c2)OCCO3)c1	2.6%	28.4%
52	Cc1cccc(N2CCN(C(=O)C3CCCN(S(=O)(=O)c4cccc5nsnc45)C3)CC2)c1C (stereo not drawn)	-11.0%	-13.4%
53	COC(=O)C(C)Oc1ccc2c(=O)c(-c3ccccc3)coc2c1 (stereo not drawn)	15.7%	99.5%[activator]
54	CC(=O)Nc1ccc(NC(=O)CCc2nc3c(C)nn(-c4ccccc4)c3n(C)c2=O)cc1	-3.7%	-4.3%
55	COc1ccc(C(=O)Cn2c(=O)n3nc(CCn4nc(C)cc4C)nc3c3cc(OC)c(OC)cc32)cc1	-7.9%	-16.7%
56	CNc1c(NC(=O)NCCc2ccccc2)c(=O)oc2ccccc12	-9.7%	-9.7%
57	Cc1ccc(NC(=O)c2sc3nc[nH]c(=O)c3c2C)cc1Cl	-7.0%	70.4%[activator]
58	O=C1CSC(c2cccc(Br)c2)N1c1cccc(C(F)(F)F)c1 (stereo not drawn)	?	?
59	NCCCCN1CCC(C(N)=O)CC1	11.1%	4.5%
60	CCN(CC)CCNC(=O)c1ccc(Cn2c(=O)c3cccn3c3cccnc32)cc1	0.0%	11.9%
61	Nc1ccc2oc(-c3cccc4ccccc34)nc2c1	11.9%	?
62	Fc1ccc(/C=N/Nc2ccc3ccccc3c2)c(F)c1	?	-20.1%
63	CCOc1ccc(C(=O)Nc2ccc(-n3nncc3-c3ccccc3)cc2)cc1OCC	-6.0%	3.1%
64	Cc1ccccc1NC(=O)/C(C#N)=C/c1ccc(OC(=O)c2ccccc2)cc1	-1.2%	2.8%
65	O=C(CCS(=O)(=O)c1cccc2nsnc12)Nc1ccc(F)cc1	-1.7%	1.1%
66	O=C(CSc1nc2ccsc2c(=O)n1Cc1ccccc1F)NCc1ccccc1	36.2%[activator]	-2.4%
67	Cc1cccc(C2N=C(N)Nc3nc4ccccc4n32)c1 (stereo not drawn)	-12.3%	-5.3%
68	Cc1cc(NC(=O)C2CC2)sc1C(=O)NC(C)c1ccccc1Br (stereo not drawn)	75.0%[activator]	14.9%
69	O=C(Nc1cccc(S(=O)(=O)N2CCCCC2)c1)C1CC(=O)N(C2CCCC2)C1 (stereo not drawn)	66.0%[activator]	-29.0%
70	CC(=O)NC1CC(C)(C)NC(C)(C)C1	-2.4%	1.4%
71	Cc1cc(C)n(CC(=O)Nc2cc(F)ccc2F)c(=O)c1C#N	2.0%	16.1%
72	O=C(Cn1ccn(-c2ccc(F)cc2)c(=O)c1=O)NCCc1ccccc1	1.9%&-19.2%	-4.3%&-26.0%
73	O=C(CSc1ncnc2nc[nH]c12)NCCc1c[nH]c2ccc(Cl)cc12	-1.9%	7.2%
74	Cc1ccc2nsnc2c1S(=O)(=O)O	2.8%	1.3%
75	CC1CCN(C(=O)c2c(NC(=O)c3ccccc3Cl)sc3c2CCC(C(C)(C)C)C3)CC1 (stereo not drawn)	-14.6%	-12.7%
76	Fc1ccc(-c2nc(COc3ccc(Br)cc3)co2)cc1	-1.2%	31.7%[activator]
77	CC(=O)c1ccc(NC(=O)Cn2cnc3nc4c(cc3c2=O)CC(C)CC4)cc1 (stereo not drawn)	-12.0%	-11.2%
78	CCCCn1c2ccc(F)cc2c2nnc(SCCN(CC)CC)nc21	-0.7%	-1.8%
79	Fc1ccc(CN2CCc3nc(Nc4ccccc4)ncc3C2)cc1F	?	7.1%
80	Cc1cccc(N2CCN(C3(c4ccccc4)C(=O)c4ccccc4C3=O)CC2C)c1 (stereo not drawn)	3.1%	31.3%[activator]
81	CC(C)Cn1c(CN2CCC(Cc3ccccc3)CC2)nc2c1c(=O)n(C)c(=O)n2C	?	?
82	CC(NC(=O)CCc1cccs1)C1CCCO1 (stereo not drawn)	-9.5%	2.8%
83	CCOC(=O)c1cnc2c(C)cc(C)cc2c1Nc1cccc(C(=O)O)c1	12.0%	8.9%
84	COc1cccc(C(N)=O)c1OCc1ccccc1	16.0%	0.0%
85	CCCCOc1ccccc1C(=O)N(Cc1cccc(F)c1)C1CCS(=O)(=O)C1 (stereo not drawn)	-4.5%	-11.6%
86	Cc1cccc(-c2nc(CSc3n[nH]c(N)n3)no2)c1	-0.1%	88.8%[activator]
87	O=C(Cc1csc2nc(-c3ccccc3)cn12)NCc1ccc(F)cc1	-6.4%	-2.0%
88	COc1ccc2oc(=O)c(-c3ccc(OCC(=O)N4CCN(C(C)=O)CC4)cc3)cc2c1	1.6%	54.3%[activator]
89	Cc1ccc(C)c(C(=O)C(C)n2cnc3c2c(=O)n(C)c(=O)n3C)c1 (stereo not drawn)	5.6%	12.4%
90	COc1ccccc1-c1nc(SCC(=O)NCc2ccc(C)cc2)c2c(=O)n(C)c(=O)n(C)c2n1	0.0%	-4.7%
91	COc1cc(OC)c(NC(=O)CSc2nccn2C)cc1Cl	-8.2%	-2.6%
92	N=C(N)c1cccc(C(F)(F)F)c1	6.1%	5.5%
93	CC(C)c1ccc(CNC(C)c2ccc(S(C)(=O)=O)cc2)cc1 (stereo not drawn)	5.8%	2.1%
94	Cc1ccccc1NC(=O)COc1ncnc2ccc(Br)cc12	-3.7%	9.6%
95	O=C1CCCc2cc(S(=O)(=O)NCC3CCC(C(=O)NCCc4ccccc4)CC3)ccc2N1 (stereo not drawn)	21.3%	0.0%
96	CCCCOc1ccc(/C=C(/C#N)c2nc3ccccc3[nH]2)cc1	-27.4%	0.0%
97	Cc1ccc(C)c(Cn2c(=O)n(CCCCC(=O)NCc3ccc4c(c3)OCO4)c(=O)c3ccccc32)c1	-3.2%	-9.4%
98	O=C(O)CNS(=O)(=O)c1ccc(Oc2ccccc2Cl)cc1	-5.0%	-4.8%
99	COc1ccc(CC(=O)Nc2nc3c(s2)CCCC3)cc1	-16.8%	0.0%
100	CCOC(=O)c1c(C)[nH]c(C(=O)C(C)N(C)Cc2ccc(OC)c(F)c2)c1C (stereo not drawn)	-7.3%	-9.3%

Entries shown so far with a tert-butyl group, in the order listed:
cpd	Molecule	2A Renilla	StopGo FLuc
10	Cn1cc(C(=O)OCC(=O)NC(C)(C)C)c2ccccc21	2.6%	0.0%
75	CC1CCN(C(=O)c2c(NC(=O)c3ccccc3Cl)sc3c2CCC(C(C)(C)C)C3)CC1 (stereo not drawn)	-14.6%	-12.7%

Following part
cpd	Molecule	2A Renilla	StopGo FLuc
101	O=C(c1ccc2c(c1)N(Cc1ccccc1F)C(=O)c1ccccc1S2=O)N1CCCCC1 (stereo not drawn)	89.4%[activator]	22.6%
102	Cc1nnc(N2CCCC(C(=O)NCc3ccccc3F)C2)c2nn(-c3ccc(Cl)cc3)c(C)c12 (stereo not drawn)	0.0%	-8.7%
103	CCN1C(=O)c2ccccc2C1Nc1ccc(OCCN2CCCCC2)cc1 (stereo not drawn)	-10.6%	-15.4%
104	COCCCNC(=O)CCC(=O)N1Cc2cccc(OC)c2Oc2ncccc21	8.7%	-3.1%
105	O=C(Nc1ccc(F)c(Cl)c1)N1CCC(CN2CCc3ccccc3C2)CC1	-4.5%	-4.1%
106	Cc1ccc2c(CN3CCC(C)CC3)cc(=O)oc2c1	12.5%	213.8%[activator]
